Screening results as filed in PubChem.
Arbovirus anti: antivirals against arbovirus infection | arbovirus infection cell-based antiviral screen | inhibition, % at 10 µM | 0.37% of 200,000 active | AID 1251;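 active means inhibition from about 30%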;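 further: bluetongue infection of BSR cells; cell survival read as ATP light after 72 h; 0% = infected wells without compound and 100% = uninfected wells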
YopH PTP inh: blocks Yersinia enterocolitica YopH tyrosine phosphatase | fluorescence Ex485/Em525 | inhibition, %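 (about 10 µM by stock and volumes)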 | 0.16% of 140,000 active | AID 898;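 active means inhibition of 50% or more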;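 further: controls were vehicle for no effect and minimum signal wells for full effect; inactives centre near -20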
Mtb betalactam: beta-lactam sensitization of Mtb H37Rv; M. tuberculosis H37Rv growth with meropenem, percent inhibition; hits of this screen are not shown here; inhibition, % at 25 µM; 0.27% of 330,000 active; AID 434955;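 active means about 74% or more and at least 40 points above the plate without the antibiotic, then above 30% in a dose series; inconclusive means first-round hits that could not be retested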;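 further: growth measured after seven days incubation then overnight dye step; 0% = bacteria only wells and 100% = bacteria with antibiotic; twin plates without the antibiotic show which effects depend on it; some results filed as inactive read as strong as hits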
Mtb H37Rv: M. tuberculosis H37Rv growth inhibitors, H37Rv strain (AID 1626). inhibition, % at 10 µM; hits with a dose series show IC50 in µM. M. tuberculosis H37Rv growth inhibition; higher % means a stronger effect. 0.95% of 220,000 active;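 active means confirmed in a dose series; inconclusive means inhibition above 80% but not taken into the dose series; inactive means below 80% or under 30% at every dose of the series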;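 further: bacteria incubated seven days before Alamar blue readout; 0% = bacteria only wells and 100% = bacteria with antibiotic wells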
RecA splice inh: inhibitors of M. tuberculosis RecA intein splicing | inhibition, %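 (about 9 µM by stock and volumes)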 | 0.75% of 290,000 active | cell-free RecA intein splicing, fluorescence; in the data active means inhibition above about 30%; inconclusive means no clear call, values can overlap the other calls;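 further: 0% = vehicle wells and 100% = reference inhibitor control wells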
Target sequence (P9WHJ3 whole entry, looked up, canonical isoform): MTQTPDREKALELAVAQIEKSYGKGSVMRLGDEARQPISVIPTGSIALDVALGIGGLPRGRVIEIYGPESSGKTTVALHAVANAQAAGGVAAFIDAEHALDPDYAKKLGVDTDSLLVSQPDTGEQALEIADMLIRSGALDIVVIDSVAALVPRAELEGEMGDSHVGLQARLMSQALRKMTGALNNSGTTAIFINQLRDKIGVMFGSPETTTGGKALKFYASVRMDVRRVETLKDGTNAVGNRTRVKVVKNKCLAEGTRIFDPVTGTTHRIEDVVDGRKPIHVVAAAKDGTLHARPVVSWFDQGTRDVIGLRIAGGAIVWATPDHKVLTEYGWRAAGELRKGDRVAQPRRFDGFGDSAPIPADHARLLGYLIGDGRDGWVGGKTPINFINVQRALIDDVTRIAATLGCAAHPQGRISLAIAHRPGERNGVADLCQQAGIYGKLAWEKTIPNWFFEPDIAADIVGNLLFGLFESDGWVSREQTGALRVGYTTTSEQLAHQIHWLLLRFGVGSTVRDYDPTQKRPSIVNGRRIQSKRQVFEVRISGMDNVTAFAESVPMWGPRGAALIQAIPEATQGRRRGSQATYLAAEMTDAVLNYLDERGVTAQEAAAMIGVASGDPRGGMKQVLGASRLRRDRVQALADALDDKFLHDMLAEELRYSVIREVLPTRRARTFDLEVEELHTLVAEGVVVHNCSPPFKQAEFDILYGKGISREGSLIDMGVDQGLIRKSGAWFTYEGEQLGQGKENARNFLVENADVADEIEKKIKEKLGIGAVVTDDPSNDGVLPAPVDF
Arbovirus anti repeat: recorded beside Arbovirus anti, whose call it bears; inhibition, %; measured here: 10K subset replicate screen; many hits read low in the repeat;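 first of two repeat runs on a subset; 0% = infected and 100% = uninfected wells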
The depositor's hits bear a star; i = inactive; ? = inconclusive; . = not tested or not shown. An excerpt, so the mix of outcomes need not match the whole.

SMILES | Arbovirus anti | YopH PTP inh | Mtb betalactam | Mtb H37Rv | RecA splice inh | others
COCCCNC(=O)c1c(N)n(-c2ccccc2)c2nc3ccccc3nc12 | . | . | 73 | 26% | i
CCCc1nc2ccccc2c(=O)n1N | 8 | -19 | -3 | 5% | -1.5
CCOC(=O)C1=C(C)N=c2s/c(=C\c3ccc(OCC(=O)O)cc3)c(=O)n2C1c1ccc(OC(C)C)cc1 (centres undefined) | -11 | 39 | 4 | -1% | -7.2
CC(NC(=O)CN(C)Cc1cccc(Cl)c1)c1ccccc1 (centres undefined) | . | . | 3 | . | 3.0
O=C(c1ccco1)N1CCN(c2cc(=O)n(-c3ccc(Cl)cc3)c(=O)[nH]2)CC1 | 16 | -15 | 20 | 10% | 0.0
CCN(CC)CCn1c2ccccc2c2cnc(N=CN(C)C)c(C#N)c21 | -25 | -30 | -5 | -3% | -0.5
COc1ccccc1N(C)S(=O)(=O)c1ccc(Cl)c(C(=O)Nc2ccncc2)c1 | . | . | -14 | . | 7.2
CCn1c(=O)c(C(=O)CN(C)Cc2ccc(F)cc2)c(N)n(Cc2ccccc2)c1=O | -12 | . | -14 | -5% | -0.8
COc1cc(CNC(=O)C2CCC(=O)N(C3CCCCCC3)C2)cc(OC)c1 (centres undefined) | . | . | 17 | . | -1.8
Cn1[nH]c(C(F)(F)F)c(C=Nc2ccc(Cl)cc2)c1=O | -9 | . | 10 | 3% | -2.1
O/N=C(\c1ccccn1)C1CC1c1ccccc1 (centres undefined) | -3 | . | 2 | 7% | 1.0
CN(C)CCNC(=S)Nc1ccc(Cl)cc1 | -1 | -20 | -2 | -7% | 0.3

Nothing new here: an excerpt of the list.
SMILES | Arbovirus anti | YopH PTP inh | Mtb betalactam | Mtb H37Rv | RecA splice inh | others
COCCCNC(=O)c1c(N)n(-c2ccccc2)c2nc3ccccc3nc12 | . | . | 73 | 26% | i
CCCc1nc2ccccc2c(=O)n1N | 8 | -19 | -3 | 5% | -1.5
CCOC(=O)C1=C(C)N=c2s/c(=C\c3ccc(OCC(=O)O)cc3)c(=O)n2C1c1ccc(OC(C)C)cc1 (centres undefined) | -11 | 39 | 4 | -1% | -7.2

Molecules above with fluorine (2):
SMILES | Arbovirus anti | YopH PTP inh | Mtb betalactam | Mtb H37Rv | RecA splice inh | others
CCn1c(=O)c(C(=O)CN(C)Cc2ccc(F)cc2)c(N)n(Cc2ccccc2)c1=O | -12 | . | -14 | -5% | -0.8
Cn1[nH]c(C(F)(F)F)c(C=Nc2ccc(Cl)cc2)c1=O | -9 | . | 10 | 3% | -2.1

Other structures.
SMILES | Arbovirus anti | YopH PTP inh | Mtb betalactam | Mtb H37Rv | RecA splice inh | others
CC(C)(C)c1cn(-c2ccc(Cl)cc2)c(=S)[nH]1 | -2 | -13 | 4 | -12% | 6.3
CCCCC(=O)NNC(=S)NC(=O)c1cccc([N+](=O)[O-])c1 | -10 | -5 | 56 | 35% | -1.1
CN(C)c1ccc(C2CC(c3cccc(NS(C)(=O)=O)c3)=NN2C(=O)c2ccccc2)cc1 (centres undefined) | -7 | . | -3 | 10% | -1.2
CC(C)N1C(=O)NC2(c3ccccc3)N(C)C(=O)N(C)C12c1ccccc1 (centres undefined) | 5 | -5 | -9 | 11% | 0.2
CCOC(=O)CNC(=O)CSP(=S)(OCC)OCC | -1 | -40 | ? | 15% | -3.9
Cc1cccc2cc(C#N)c(NCCNC(=S)NCCCN3CCOCC3)nc12 | 15 | -29 | 6 | 2% | -32
COc1cc(OC)nc(Oc2ccc(NC(C)=O)cc2)n1 | -2 | . | 1 | 4% | -0.9
CCN1CCN(C(=O)c2ccc(CNS(=O)(=O)c3cccc(OC)c3)cc2)CC1 | . | . | -2 | . | 1.2
O=C(NC(c1cccnc1)C(F)(F)F)c1cc(COc2ccc3c(c2)CCCC3)on1 (centres undefined) | . | . | 12 | . | 1.9
CCSC1=NCCN1S(=O)(=O)c1ccc(Cl)cc1 | -5 | . | -7 | -18% | 2.3
Cc1ccc(C(CNC(=O)c2ccco2)N2CCN(C)CC2)cc1 (centres undefined) | . | . | -1 | . | 1.3
CCCNc1nc(C)cc(-c2cc(-c3ccccc3)on2)n1 | . | . | 52 | 13% | 0.8
Cc1cc(C)c(OCC(=O)OCC(=O)N2c3ccccc3CC2C)c(C)c1 (centres undefined) | . | . | 77 | . | 6.9
CC(=O)N1CCN=C1SCc1cccc(F)c1 | . | . | 1 | . | -3.1
COc1ccc(-c2[nH]ncc2CN(C)Cc2cccnc2)c(F)c1 | 0 | . | -6 | -1% | -2.3
S=c1nc(-c2ccccc2)n(CCCN2CCOCC2)c2c1CCCC2 | 5 | -24 | 2 | 0% | 2.8 | Arbovirus anti repeat=2
COC(=O)Nc1ccc(S(=O)(=O)Nc2ccccc2F)cc1 | 9 | -36 | -2 | -5% | -0.6
COc1cccc(CNC(=O)c2cccc(S(=O)(=O)N3CCN(c4ccc(F)cc4)CC3)c2)c1 | . | . | -1 | . | 5.1
O=C(Cc1ccccc1)Nc1nnc(-c2cccc([N+](=O)[O-])c2)s1 | 1 | -20 | -4 | 2% | -4.3
Fc1ccc(-c2onc3ccc(C4OCCO4)cc23)cc1 | -5 | . | -6 | -5% | -0.9
O=C(NNC(=S)NC1CCCCC1)c1sc2ccccc2c1Cl | -2 | -26 | 6 | 64% | 22
CC(=O)CSc1nc(N)c(C#N)c(-c2cccs2)c1C#N | 23 | 1 | 5 | -7% | 2.1
COc1ccc(CNC(=O)CN(Cc2ccc(Cl)cc2)S(=O)(=O)c2ccccc2)cc1 | 6 | -17 | 2 | -6% | 5.7
COc1ccc(-c2nc(CSCC(=O)NCc3ccc4c(c3)OCO4)c(C)o2)cc1 | -11 | -59 | 2 | 10% | -0.4
FC(F)(F)c1cccc(NC(=S)N2CCN(c3cccc(C(F)(F)F)c3)CC2)c1 | 13 | -16 | -10 | 1% | 0.6
Cc1ccc(C(C(=O)NC2CCCCC2)N(Cc2ccco2)C(=O)Cc2c[nH]c3ccccc23)o1 (centres undefined) | -21 | -37 | 12 | 0% | 4.5
COc1ccccc1C(=O)C1CCCN(C(=O)Nc2ccccc2F)C1 (centres undefined) | 0 | . | -15 | 3% | -1.1
Cc1ccc(N(CC(=O)Nc2cc(C)cc(C)c2)S(=O)(=O)c2cccc3nonc23)cc1 | -1 | -19 | -3 | 1% | -3.0
Cc1ccccc1N1CC(C(=O)Nc2ccc(S(=O)(=O)N3CCCC3)cc2)CC1=O (centres undefined) | . | . | -14 | . | -1.8
O=c1c(Cl)c(O)c2cccc3c4ccccc4n1c23 | 12 | -27 | -2 | -17% | -6.4
CCc1ccc(/C=C2\CN(CC)Cc3c2nc2ccccc2c3C(=O)O)cc1 | 9 | -22 | 7 | 7% | 2.5
COc1ccc(C2=Nn3c(nnc3-c3ccco3)SC2)cc1 | -15 | -14 | 9 | 4% | 0.8
CN(CC1COc2ccccc2O1)C(=O)c1cc(COc2c(F)cccc2F)on1 (centres undefined) | . | . | ? | . | 6.7
CCC(C)(C)NC(=O)C(OC(=O)c1ccco1)c1ccccc1F (centres undefined) | . | . | -16 | . | 1.0
COc1ccc(NC(=S)NCCC2=CCCCC2)cc1OC | 0 | . | -3 | 1% | 1.6
Cn1c(=O)c2[nH]c(N=NNc3ccccc3F)nc2n(C)c1=O | . | . | -6 | -4% | -1.6

Quoted at random: 3 entries already listed.
SMILES | Arbovirus anti | YopH PTP inh | Mtb betalactam | Mtb H37Rv | RecA splice inh | others
Cc1ccccc1N1CC(C(=O)Nc2ccc(S(=O)(=O)N3CCCC3)cc2)CC1=O (centres undefined) | . | . | -14 | . | -1.8
COc1ccc(C2=Nn3c(nnc3-c3ccco3)SC2)cc1 | -15 | -14 | 9 | 4% | 0.8
FC(F)(F)c1cccc(NC(=S)N2CCN(c3cccc(C(F)(F)F)c3)CC2)c1 | 13 | -16 | -10 | 1% | 0.6

(listing goes on)
SMILES | Arbovirus anti | YopH PTP inh | Mtb betalactam | Mtb H37Rv | RecA splice inh | others
O=C(NCCCN1CCOCC1)c1csc2c1CCCC2 | 3 | -34 | 13 | 10% | -1.4
CN(Cc1ccc(Br)cc1)CC(O)COc1cccc(Br)c1 (centres undefined) | . | . | 4 | . | 5.8
Cn1c(-c2cnn(-c3ccccc3)c2-n2cccc2)n[nH]c1=S | -1 | . | -1 | 1% | -6.1
O=C(CCN1C(=O)/C(=C/c2cccs2)SC1=S)Nc1ccccc1O | . | . | 2 | . | 0.2
Cc1cc(C)cc(NC(=S)N2CCC(NC(=O)C3CCCCC3)CC2)c1 | . | . | 6 | . | -4.1
CC1(C)OC1COc1c2ccoc2cc2oc(=O)ccc12 (centres undefined) | -4 | . | -5 | -5% | -1.3
Cc1cc2nn(-c3cccc4ccccc34)nc2cc1NC(=O)c1cccs1 | -4 | 18 | 1 | 10% | 17
CCc1cccc(C)c1NC(=O)N(C)C1CCCCC1 | . | . | -15 | 3% | 0.3
COc1cccc(NC(=O)CCc2nc(-c3ccccc3F)no2)c1 | -2 | -5 | -10 | 1% | 1.3
O=C(NCc1cccnc1)C1CC(c2ccc(F)cc2)=NO1 (centres undefined) | 0 | -47 | 0 | -7% | -0.4
COc1ccc(OC)c(C2=NOC(C(=O)N3CCCc4ccccc43)C2)c1 (centres undefined) | 4 | 1 | -13 | 2% | 1.7
O=S(=O)(N1CCCCC1)N1CCN(c2ccccc2F)CC1 | 3 | -12 | 0 | 5% | 1.2

Part of the list above in order of SMILES length, falling.
SMILES | Arbovirus anti | YopH PTP inh | Mtb betalactam | Mtb H37Rv | RecA splice inh | others
Cc1cc2nn(-c3cccc4ccccc34)nc2cc1NC(=O)c1cccs1 | -4 | 18 | 1 | 10% | 17
Cn1c(-c2cnn(-c3ccccc3)c2-n2cccc2)n[nH]c1=S | -1 | . | -1 | 1% | -6.1
CC1(C)OC1COc1c2ccoc2cc2oc(=O)ccc12 (centres undefined) | -4 | . | -5 | -5% | -1.3
CCc1cccc(C)c1NC(=O)N(C)C1CCCCC1 | . | . | -15 | 3% | 0.3
O=C(NCCCN1CCOCC1)c1csc2c1CCCC2 | 3 | -34 | 13 | 10% | -1.4

Next entries:
SMILES | Arbovirus anti | YopH PTP inh | Mtb betalactam | Mtb H37Rv | RecA splice inh | others
COc1ccc(CC(=O)Nc2ccc(-c3nc4cc(C)ccc4o3)c(O)c2)cc1OC | -11 | -38 | 0 | . | -3.3
OC1CCNC(=S)N1c1ccccc1 (centres undefined) | 30 | . | -7 | -2% | -3.3
CCCCc1ccc2[nH]cc(CCN)c2c1 | -29 | -46 | 7 | -6% | 0.8
O=C(NNc1c2ccccc2nc2ccccc12)c1cccc(O)c1 | 1 | -17 | 2 | 5% | -7.6
CCOC(=O)C(C)Oc1cccc2c(=O)n(CC(=O)NCc3ccco3)ccc12 (centres undefined) | -14 | -20 | -2 | 6% | 7.8
CCOc1ccc(C2=NNC(c3cccnc3)=Nc3ccc(OC)cc32)cc1 | -17 | . | 69 | 2% | 2.0
CN(C)C(CNC(=S)Nc1cccc(Cl)c1)c1ccccc1 (centres undefined) | -10 | . | 0 | 4% | 2.7
CCOc1ccc(CNS(=O)(=O)c2c(C(=O)N3CCCC3)c(C)n(C)c2C)cc1OC | . | . | 8 | . | -0.8
Cc1c(C(=O)NCCSCc2c(Cl)cccc2Cl)cccc1[N+](=O)[O-] | -8 | -28 | 3 | 4% | -1.0
COc1ccc(N2C(=O)C3C(C2=O)C2C=CC3C23CC3)c(OC)c1 (centres undefined) | -7 | -12 | -7 | -5% | .
Cc1ccc(-n2c(C)nc3c(cnn3-c3ccc(F)cc3)c2=O)cc1C | 5 | -33 | -9 | -2% | -1.7
CN(CC(=O)Nc1cccc(F)c1)C(=O)c1ccccc1OCCOc1ccccc1 | . | . | -16 | . | 3.9
O=C(c1cccs1)N1CCN(c2ncc(Br)cn2)CC1 | . | . | -5 | -12% | 11
Cc1ccc(C)c(N2CCN(C(=O)c3ccc(NC4=NC5CS(=O)(=O)CC5S4)cc3)CC2)c1 (centres undefined) | . | . | 5 | . | -3.5
CN(C)c1cc[n+](CC(=O)Nc2ccc(Cl)cc2)cc1 | . | . | -1 | . | -6.4
CCOC(=O)c1c(NC(=O)Cn2nc(C(F)F)cc2C(F)F)sc(C)c1C | 13 | -3 | -5 | -12% | -0.3
CN(C)c1ccc(N=Cc2nc(-c3ccccc3)oc2OC(=O)c2cccc(Br)c2)cc1 | -3 | 15 | -1 | 3% | -5.5
COc1ccc(C(=O)NNC(=O)CSc2nnc(COc3ccccc3OC)n2C)cc1 | 0 | -24 | -1 | -7% | -3.8
Cc1n[nH]c(=O)nc1NCCN(C)C | 3 | -23 | -6 | 6% | -0.7
